Source: PubChem BioAssay (National Center for Advancing Translational Sciences (NCATS))
HSD17B inh – qHTS Assay for Inhibitors of HSD17B4, hydroxysteroid (17-beta) dehydrogenase 4 | 3-hydroxyacyl-CoA dehydrogenase type-2 (Homo sapiens), Q99714 | recombinant HSD17B10, NADH fluorescence kinetic; many of its hits are not listed in these tables | Potency, µM (highest dose often 57.1 µM), for the others: at the highest dose activity change, negative = inhibition, usual class: inhibitors | 7.6% of 75,000 active; active = well fitted inhibition curve with a large enough effect; inconclusive = small, poorly fitted or top-dose-only effect; inactive = no such curve, though single readings can be large or run the other way;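 note: the protocol describes HADH2 (HSD17B10) and not the HSD17B4 of the title; nearly all actives have a fitted effect of over 70% in size; most hits overshoot -100% by far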
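Activity followed as NADH fluorescence increase (ex 360, em 450 nm) every 30 seconds for 4 min, using final 90 uM beta-hydroxybutyryl CoA and 1 mM NAD+. Recombinant His-tagged enzyme, 20 nM, pH 9.0 Tris buffer, 15 min compound preincubation.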
An asterisk follows results filed as active; ? = inconclusive; [ ] = dose if it differs, or a comment. % is set by controls: 0 for no effect and ±100 for the full control effect; potency is the fitted concentration of half-maximal effect. Not all compounds are listed, so the mix of outcomes need not match the whole.

| canonical_smiles | HSD17B inh |
| --- | --- |
| CCOC(=O)CSc1nc(C)c(C(=O)OCC)s1 | -4.8% |
| CCC1C(C#N)=C(N)OC2=C1C(=O)CC(C)(C)C2 (stereo not drawn) | 3.2% |
| COc1ccccc1Nc1nc(N)nc(CN2CCN(c3ccccc3)CC2)n1 | -6.7% |
| CCOC(=O)C1CCN(C(=O)CCCN2C(=O)c3ccccc3C2=O)CC1 | 2.3% |
| CC1=C(C)CS(=O)N(S(=O)(=O)c2ccc(Cl)cc2)C1 (stereo not drawn) | -11.3% |
| O=C(NCCN1CCOCC1)C1CCN(Cc2ccccc2O)CC1 | -7.7% |
| c1coc(-c2nnc3n2C2(CCCC2)Cc2ccccc2-3)c1 | 20µM* |
| COc1ccccc1CNC(=O)c1ccoc1C | 2.8% |
| COc1cc2c(cc1OC)C1C(=O)c3c(O)cc4c(c3OC1CO2)C=CC(C)(C)O4 (stereo not drawn) | -3.6% |
| C1CCC2=NCCCN2CC1 | 9.9% |
| COc1cccc(Cn2c(-c3nonc3N)nc3ccccc32)c1 | -11.7% |
| COC(=O)C/C=C\[C@H](C)[C@@H](OC)c1ccccc1Br | -0.2%[11.4 µM] |
| Cc1ccc(C)c(NC(=O)CSc2nnc(-c3ccccc3)n2N)c1 | -8.9% |
| CCOC(=O)Nc1ccc2c(c1)N(C(=O)CCN1CCN3CCCC3C1)c1ccccc1CC2 (stereo not drawn) | -0.8% |
| CCS(=O)(=O)N1CCCC(C(=O)NC2CCC(C)CC2)C1 (stereo not drawn) | 1.3% |
| Cc1noc(C)c1C(=O)Nc1c(F)cc(F)cc1Br | 1.4% |
| Cc1ccc(C)c(Cn2c(=O)n(CCC(=O)NCc3ccco3)c(=O)c3sccc32)c1 | -8.1% |
| COc1ccc(Cn2c(=O)sc3ccccc32)cc1OC | 8.4% |
| Cc1cccc(-c2nsc(SCC(=O)N3CCCC3)n2)c1 | -15.9% |
| Cc1noc(C)c1C(=O)N1CCC2(CCCN(C(c3ccccc3)c3ccccc3)C2)CC1 | -0.3% |
| C=CCc1ccccc1OCC(O)CN1CCN(c2ccccc2OC)CC1 (stereo not drawn) | 2.0% |
| O=C(NCC1CCCO1)c1cc2n(n1)C(C(F)(F)F)CC(c1ccc(Br)cc1)N2 (stereo not drawn) | -7.2% |
| C=CCn1c(NCc2cc(C)ccc2O)nc2ccccc21 | -3.6% |
| CSc1ccc(C2Nc3ccccc3-c3cc(C)nn32)cc1 (stereo not drawn) | 31.6µM* |
| O=C(O)[C@@H]1[C@@H](C(=O)O)[C@]23C[C@@]2(C(=O)O)[C@]2(C(=O)O)CCC3=C3CCCC312 | 6.2%[11.4 µM] |
| CCCCNC(=O)C(c1ccc(OCC(=O)OC)c(C(=O)OC)c1)N(Cc1ccccn1)C(=O)CCCCCN1C(=O)NC(c2ccc(-c3ccccc3)cc2)C(C(=O)OCc2ccccc2)=C1C (stereo not drawn) | 13.0% |
| Cc1nc2ncnn2c(C)c1CCC(=O)Oc1ccccc1 | 1.0% |
| CCC(C)(C)N=C(NC#N)Nc1cccnc1 | -14.3% |
| CCC(C)NC(=O)C1c2ccccc2C(=O)N1Cc1cc(OC)ccc1OC (stereo not drawn) | 21.6% |
| O=C(c1ccc(-c2ccccc2)cc1)N1CCN(Cc2ccccn2)CC1 | -1.7% |

Carrying on.
| canonical_smiles | HSD17B inh |
| --- | --- |
| CCOC(=O)Cc1c(C)nc2cc(-c3ccc(Cl)cc3)[nH]n2c1=O | 15.8µM* |
| COc1ccc2oc(=O)c(C(=O)N3CCc4ccccc43)cc2c1 | 4.5% |
| O=C(NCCc1ccccc1)C1CCN(S(=O)(=O)c2cccc3nsnc23)CC1 | 1.3% |
| Cc1ccccc1OCC(O)Cn1c(NCCN(C)C)nc2c1c(=O)n(C)c(=O)n2C (stereo not drawn) | ? |
| CCC(Oc1ccccc1)C(=O)N1CC(C)CC(C)C1 (stereo not drawn) | 1.3% |
| Cc1cccc(N(CC(=O)N2CCCC2)S(=O)(=O)c2ccccc2)c1 | -3.3% |
| COc1ccccc1C(=O)N1CCN=C1SC | 3.0% |
| CCOC(=O)c1c(-c2ccc(C)o2)csc1NC(=O)CN1CCN(CC)CC1 | -12.7% |
| CC1Cn2c(nnc2-c2cccc(Cl)c2)S1 (stereo not drawn) | 4.5% |
| CSc1nsc(SCC(=O)N2CCCc3ccccc32)n1 | -4.7% |
| CCCCCCC1CC(CSc2ncn[nH]2)OC1=O (stereo not drawn) | -5.0% |
| CCOc1ccc(CN2C(=O)CCC2(C)C(=O)NCc2cccnc2)cc1 (stereo not drawn) | 0.5% |
| CC1CCCCN1C(=O)Cn1cc(C(=O)c2ccco2)c2ccccc21 (stereo not drawn) | -8.1% |
| O=C(CN1C(=O)C2C3C=CC(C3)C2C1=O)NCC1COc2ccccc2O1 (stereo not drawn) | -6.0% |
| COc1cccc(/C=N/NC(=O)c2cc(-c3ccc(C)cc3)n[nH]2)c1O | -23.9% |
| COc1ccccc1N1CCN(C(c2cccs2)C(C)NS(=O)(=O)c2ccccc2)CC1 (stereo not drawn) | -13.1% |
| COCCC(=O)NC12CC3CC(CC(C3)C1)C2 | -0.8% |
| Cn1c(=O)c2c(nc(SCC(=O)c3cccs3)n2Cc2ccc(F)cc2)n(C)c1=O | -9.8% |
| c1n[nH]c(NCc2ccc3c(c2)OCO3)n1 | -4.1% |
| C=CCNc1nc(N2CCCC2)nc2ccccc12 | 25.1µM* |
| COc1ccc(NS(=O)(=O)c2ccc3c(c2)CCC(=O)N3)c(OC)c1 | 2.3% |
| COc1cc(-c2nc(S(=O)(=O)c3ccc(C)cc3)c(N(C)C)o2)cc(OC)c1OC | -0.7% |
| COc1ccc(S(=O)(=O)N(C)c2ccc(C(=O)N3CCOCC3)cc2)cc1OC | 7.7% |
| Cc1nc2nc(Cc3ccccc3)[nH]n2c(=O)c1Cc1ccccc1 | -5.7% |
| CN(C)S(=O)(=O)c1ccc(S(=O)(=O)N(CC(=O)Nc2ccccc2)Cc2ccco2)cc1 | 1.9% |
| Cc1ccnc(SCCn2c(N3CCOCC3)nc3c2c(=O)n(C)c(=O)n3C)n1 | -5.1% |
| COc1ccc(-c2noc(C3CCCN(C(=O)CCc4ccccc4)C3)n2)cc1 (stereo not drawn) | -6.4% |
| COc1ccc(N(CC(=O)O)S(=O)(=O)c2cccnc2)cc1 | 8.3% |
| Cn1c(SCc2ccc(F)cc2)nnc1-c1ccccn1 | 10.0% |
| Clc1cccc(-c2cc3nc4c(c(N5CCOCC5)n3n2)CCCC4)c1 | ? |

Shown with each value named: part of the list above.
CCC(Oc1ccccc1)C(=O)N1CC(C)CC(C)C1 (stereo not drawn)
  HSD17B inh: 1.3%

Cc1cccc(N(CC(=O)N2CCCC2)S(=O)(=O)c2ccccc2)c1
  HSD17B inh: -3.3%

(list continues)
| canonical_smiles | HSD17B inh |
| --- | --- |
| COc1cc(OC)cc(C(=O)Nc2cccc(N3CCCC3)c2)c1 | 0.3% |
| N#CCCn1c(=O)c(CCc2ccccc2)nc2cnc(OCc3ccccc3)nc21 | ? |
| COc1cc(C(=O)NCCC(=O)NCc2ccc3c(c2)OCO3)cc(OC)c1OC | 3.0% |
| Cc1nc(N=Nc2cc(S(=O)(=O)O)ccc2S(=O)(=O)O)c(COP(=O)(O)O)c(C=O)c1O | ? |
| O=C(NCc1ccco1)c1cc2n(n1)C(C(F)(F)F)CC(c1ccc(Br)cc1)N2 (stereo not drawn) | -2.2% |
| COc1cccc2c(=O)n(CC(=O)N3CCCc4ccccc43)ccc12 | ? |
| C[C@H]([C@@H](N)C(=O)N[C@@H](C(=O)O)[C@@H]1O[C@H](n2ccc(=O)[nH]c2=O)[C@@H](O)[C@H]1O)[C@@H](O)c1ccc(O)cn1 | -6.4% |
| CCC(CC)NC(=O)c1cc(OC)c(OC)c(OC)c1 | 1.1% |
| COc1ccc(CCN2CNc3c(c(=O)n(C)c(=O)n3C)C2)cc1 | 5.9% |
| CC(=O)NCCNc1nc(-c2ccc(C(=O)N(C)C)cc2)nc2ccccc12 | 6.6% |
| O=C1CCc2cc(S(=O)(=O)N3CCCC3C(=O)N3CCN(c4ccccc4)CC3)ccc2N1 (stereo not drawn) | 8.8% |
| O=C(O)CCCCCNC(=O)CCn1cnc2ccccc2c1=O | -2.6% |
| CCOc1ccccc1NC(=O)CSc1nnc(-c2ccco2)o1 | 7.3% |
| COc1cc(C(=O)OCC(=O)Nc2cc(C)on2)ccc1OCc1ccccc1Cl | 2.9% |
| CC1CN(C(=O)N(C)C)CCN1C(=O)N(C)C (stereo not drawn) | 6.9% |
| O=C(c1ccco1)c1nnn(Cc2ccccc2)c1-c1ccccc1 | -4.3% |
| O=C(Nc1cc(=O)c2ccccc2o1)N1CCCCC1 | 13.2% |
| N#Cc1ccc(CN2CC3(CCN(C(=O)c4ccncc4)CC3)C2)cc1 | 7.9% |
| CC1Cc2ccccc2N1C(=O)CSc1nnc(CNc2ccccc2)o1 (stereo not drawn) | 2.0% |
| CCOC(=O)c1cnc(SC)nc1Nc1cccc(F)c1 | -10.8% |
| COc1ccc(NC(=O)CSc2nnc(Cc3cccn3C)n2-c2ccc(C)cc2)cc1OC | -1.2% |
| CC(=O)N1CCN(CCN(CC2C(C)C=C(C)CC2C)C(C)=O)CC1 (stereo not drawn) | 2.5% |
| Cc1c(N)cccc1N | 0.7% |
| CC1CN(C(=O)c2ccc(COCC(F)(F)F)o2)CC(C)O1 (stereo not drawn) | 10.8% |
| CCCN(CCC)CCCNC(=O)c1cc2c(=O)n(C)c3ccccc3c2n1C | 31.6µM* |
| CC1(C)Cc2c(c(-c3ccco3)[nH]c(=O)c2C#N)CO1 | ? |
| OCC1OC(n2nnc3ccccc32)C(O)C(O)C1O (stereo not drawn) | 5.3% |
| CC(=O)[C@]1(O)CCC2C3C=C(Cl)C4=CC(=O)C5CC5[C@@]4(C)C3CC[C@]21C (stereo partly drawn) | -4.0% |
| CC1(O)N(Cc2ccccc2)C(=O)OC12CCCCC2 (stereo not drawn) | 2.3% |
| CCCCn1c(CN(C)Cc2ccccc2)nc2c1c(=O)n(C)c(=O)n2C | 0.9% |

Molecules shown so far that have bromine:
| canonical_smiles | HSD17B inh |
| --- | --- |
| COC(=O)C/C=C\[C@H](C)[C@@H](OC)c1ccccc1Br | -0.2%[11.4 µM] |
| Cc1noc(C)c1C(=O)Nc1c(F)cc(F)cc1Br | 1.4% |
| O=C(NCC1CCCO1)c1cc2n(n1)C(C(F)(F)F)CC(c1ccc(Br)cc1)N2 (stereo not drawn) | -7.2% |
| O=C(NCc1ccco1)c1cc2n(n1)C(C(F)(F)F)CC(c1ccc(Br)cc1)N2 (stereo not drawn) | -2.2% |

Later entries:
| canonical_smiles | HSD17B inh |
| --- | --- |
| COCCCN1C(=O)c2ccc(C(=O)NCc3ccco3)cc2C1=O | -2.5% |
| Cc1ccc2cc(CCNC(=O)C(C)C)c(=O)[nH]c2c1C | -23.7% |
| CCN(CC)CCNC(=O)Cn1nc(-c2ccc(C)cc2)ccc1=O | -24.1% |
| CCOC(=O)c1cccc(NC(=O)Cn2c(CC(=O)N3CCCC3)nc3ccccc32)c1 | -8.6% |
| CC1(c2ccc(Cl)cc2)NC(=O)N(CC(=O)N2CCCC2)C1=O (stereo not drawn) | 4.3% |
| CCOC(=O)CC(=O)CSc1ccc2nnc(-c3cccc(F)c3)n2n1 | ? |
| CC1CCCCN1C(=O)c1ccc(S(=O)(=O)N2CCCCC2C)cc1 (stereo not drawn) | 5.9% |
| O=C1CC(Cc2ccc(Cl)cc2)C(=O)N1c1ccccn1 (stereo not drawn) | 9.0% |
| CC(=O)[C@]1(O)CC[C@@H]2[C@H]3C[C@@H](C)C4=CC(=O)CC[C@@]4(C)[C@H]3[C@@H](O)C[C@]21C | -3.5%[11.4 µM] |
| Cc1cccc2cc(C(c3nnnn3CC3CCCO3)N3CCOCC3)c(=O)[nH]c12 (stereo not drawn) | ? |
| CCOc1ccc(CCNc2cc(C)nc3ncnn23)cc1OCC | 1.7% |
| CCCSc1nnc(Cc2cc(=O)[nH]c(=O)[nH]2)n1-c1cc(C)ccc1C | -2.0% |
| COc1ccccc1-n1cnc2cc(NS(=O)(=O)c3ccccc3)ccc21 | -16.2% |
| CCOC(=O)CSc1nncc2ccc(OC)c(OC)c12 | ? |
| CCCCn1c(SCC(=O)N2CCC(C)CC2)nc2cc(S(N)(=O)=O)ccc21 | -3.4% |
| Cc1ccc(N2CCCCn3c2nc2c3c(=O)n(CC(=O)O)c(=O)n2C)cc1 | 0.0% |
| O=C(OCCN1CCCC1)C1(c2ccccc2)CCCC1 | -0.4% |
| O=C1C2CC=C(Cl)CC2C(=O)N1CCc1c[nH]c2ccccc12 (stereo not drawn) | -2.7% |
| CCOC(=O)c1c(C)c(C(=O)N2CCN(C(=O)c3ccco3)CC2)c(C)n1C | 1.0% |
| O=c1cc(CN2CCN(C/C=C/c3ccccc3)CC2)c2cc(O)ccc2o1 | 8.9% |
| CCOC(=O)CSc1nc2ccccc2c(=O)n1CCCCCC(=O)NCc1ccco1 | -9.8% |
| CCn1nccc1C(=O)Nc1nccs1 | 1.6% |
| COc1ccc(Cn2c(SCC(=O)NCc3ccco3)nc3ccsc3c2=O)cc1 | -10.3% |
| C[C@H]1CCCC=CC2C[C@H](OC(=O)CN(C)C)C[C@@H]2[C@@H](O)/C=C\C(=O)O1 (stereo partly drawn) | 1.0%[11.4 µM] |
| COC(=O)[C@@]1(Cc2ccccc2)[C@H]2c3cc(C(=O)N4CCCC4)[nH]c3C[C@H]2CN1C(=O)c1ccccc1 | 6.6% |

Retrieved by structure from above, 2 records:
| canonical_smiles | HSD17B inh |
| --- | --- |
| COc1ccccc1-n1cnc2cc(NS(=O)(=O)c3ccccc3)ccc21 | -16.2% |
| CC1Cn2c(nnc2-c2cccc(Cl)c2)S1 (stereo not drawn) | 4.5% |
